Compound activity deposited in PubChem BioAssay by ICCB-Longwood Screening Facility, Harvard Medical School.
S aureus helic – blocks Staphylococcus aureus DNA helicase; purified S. aureus helicase, fluorescence unwinding assay; about half of the hits fall short of the stated cut; inhibition, %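 (tested at about 80 µM)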; 120,000 compounds, 0.05% hits; AID 485395;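 active means both duplicates at 50% or more, or one of them with a favoured structure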;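 further: 0% = mean of negative control wells and 100% = mean of positive control wells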
MgrA-DNA mod – S. aureus MgrA-DNA binding modulation. fluorescence polarization. 84,000 compounds, 0.13% hits. inhibition, %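 (about 10 µg/mL by stock and volumes)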. AID 602314;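 active means above 50% in either of two replicates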;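 further: 0% = protein plus DNA without compound and 100% = DNA alone without protein; higher means less MgrA bound to DNA so lower polarization; one replicate is shown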
Numbers without * were called inactive; . = no result given. An excerpt; the hit share may differ from the screen's.

S aureus helic	MgrA-DNA mod	Structure
-17	.	NS(=O)(=O)c1ccc(CCN(Cc2nc3ccsc3c(=O)[nH]2)Cc2nc3ccsc3c(=O)[nH]2)cc1
10	1.9	Cc1ccccc1N1C(=O)C(Oc2ccc(Cl)cc2)C1CNC(C)(C)C (stereo not drawn)
2	.	O=C(CSc1nnc(NC(=O)C2CC(=O)N(c3ccc(F)cc3)C2)s1)NCC1CCCO1 (stereo not drawn)
0	7.9	COCCN1C(=O)/C(=C/c2cc(C)n(-c3ccncc3)c2C)C(=O)N(c2ccccc2)C1=O
13	.	NCc1ccncc1
6	0.3	O=C1CCC(C(=O)OCC(=O)c2ccccc2)N1 (stereo not drawn)
5	.	O=C(NNc1ncnc2c1cnn2-c1ccc(Cl)cc1)c1cccs1
34	.	O=c1[nH]c2ccccc2c(=O)n1CCNc1cccc(Cl)c1
.	-1.9	CC(C)CC(c1ccccc1)C(O)c1ccccc1 (stereo not drawn)
.	-3.0	N#C/C(=N\O)S(=O)(=O)c1ccccc1
2	.	Cc1ccc(COc2coc(CN3CCN(Cc4ccccc4)CC3)cc2=O)cc1
.	-0.3	O=C(c1ccc(-c2ccccc2)cc1)N1CCCC1
.	2.0	CCCN(CCC)c1cc(Cl)nc(SC)n1
.	-1.9	O=C1C2C3C=CC(O3)C2C(=O)N1OCc1ccc(OC(F)(F)F)cc1 (stereo not drawn)
-2	-1.3	CCOC(=O)N1CCN(C(=O)C(CC(C)C)NS(=O)(=O)c2ccc3c(c2)oc(=O)n3C)CC1 (stereo not drawn)
5	-0.1	N#CC1=C(N)N(c2cccc(C(F)(F)F)c2)C(=O)C1
-12	.	COc1ccccc1N1CCN(C(C)C(=O)N(C)Cc2ccccc2)CC1 (stereo not drawn)
-20	-2.5	COc1ccc(-c2cc(C(=O)NCCCn3ccnc3)c3ccccc3n2)cc1
7	.	O=C(Nc1ccc(Br)cc1F)c1ccc2c(c1)N(Cc1ccccc1)C(=O)CS2=O (stereo not drawn)
7	-3.2	O=C1CC2CCCC(CN1)N2CC(=O)N1CCCCCC1 (stereo not drawn)
-7	.	CCC(CC)NC(=O)c1ccc2c(c1)OCCO2
8	-1.9	CCNC(=O)C1CC(=O)OC12CCCCC2 (stereo not drawn)
-16	-0.7	O=C1CCCCC1Sc1nc2ccccc2[nH]1 (stereo not drawn)
0	-0.6	CCCn1c(-c2ccc(OC)c(OC)c2)nc2ccccc21

Four of the entries above in order of their number in S aureus helic, smallest number first.
S aureus helic	MgrA-DNA mod	Structure
-20	-2.5	COc1ccc(-c2cc(C(=O)NCCCn3ccnc3)c3ccccc3n2)cc1
-17	.	NS(=O)(=O)c1ccc(CCN(Cc2nc3ccsc3c(=O)[nH]2)Cc2nc3ccsc3c(=O)[nH]2)cc1
0	-0.6	CCCn1c(-c2ccc(OC)c(OC)c2)nc2ccccc21
7	-3.2	O=C1CC2CCCC(CN1)N2CC(=O)N1CCCCCC1 (stereo not drawn)

The listing continues.
S aureus helic	MgrA-DNA mod	Structure
.	-1.4	O=C(CSc1n[nH]c(=O)n1Cc1ccco1)Nc1ccccc1
10	-2.0	O=C(NC1C2CC3CC(C2)CC1C3)c1cc(F)c(F)cc1Cl (stereo not drawn)
.	-1.0	COc1cc(Br)cc(/C=N/O)c1O
-3	.	COc1cc(/C=C/C(=O)OCC(=O)Nc2c(C)n(C)n(-c3ccccc3)c2=O)ccc1OCC#N
13	0.4	COc1ccc(-c2nn(C)c3sc(C(=O)NCC4(c5ccccc5)CCCC4)cc23)cc1OC
6	.	CC1C/C(=N/NC(=O)Cc2cn3ccsc3n2)CC(C)(C)C1 (stereo not drawn)
10	-0.4	CCOC(=O)c1cnc2cc(C(F)(F)F)ccc2c1N1CC(C)CC(C)C1 (stereo not drawn)
6	.	O=C(NCCn1cc(SCC(=O)N2CCOCC2)c2ccccc21)c1cccs1
-22	.	COCCn1c(C)cc(C(=O)CSc2ccc(Cl)cc2)c1C
-1	.	CCC(CCC(=O)Nc1nccs1)C(=O)O (stereo not drawn)
17	-1.8	COc1ccc2occ(C(=O)c3coc4ccc(O)c(CN(C)C)c34)c2c1
6	1.1	O=C1CCc2cc(S(=O)(=O)N3CCCC3C(=O)NC3CCCCC3)ccc2N1 (stereo not drawn)
-3	-3.0	COc1ccc(NC=O)c(CS(=O)(=O)c2ccc(C)cc2)n1
-14	1.4	C=CCN1C(=O)C2(c3ccccc31)c1c(oc3ccccc3c1=O)C(=O)N2CCCO (stereo not drawn)
6	-1.8	CCCC(=O)NCCc1cc2ccc(OC)cc2[nH]c1=O
9	.	Cc1cccc(-c2nnn3c2nc(N2CCN(C(=O)c4ccco4)CC2)c2cc(Cl)ccc23)c1
-72	.	CN1/C(=C\C(=O)CN2CCN(c3ccc(F)cc3)CC2)C(C)(C)c2ccccc21
4	.	CCOC(=O)c1nn(-c2ccc(OC)cc2)c(=O)c(C#N)c1C
18	45	CCOc1ccc2ccccc2c1/C=C1\C(=O)NC(=S)N(c2cccc(Cl)c2Cl)C1=O
1	-2.1	C=CCn1c(O)c(N=N)c2ccccc21
-9	.	COc1cccc(-n2c(=O)c3ccccc3n3c(SCCN(C)C)nnc23)c1
-1	.	CC(NC(=O)CN1CCc2sccc2C1c1cccs1)c1ccc2c(c1)OCCO2 (stereo not drawn)
.	-1.9	O=C(O)CC1(CC(=O)NCc2ccoc2)CCCCC1
-7	-1.4	CC1=CC(C)C2(COC(c3cccnc3)OC2)C(C)C1 (stereo not drawn)
17	.	COC(=O)c1ccc2c(c1)N(Cc1nc(-c3cccc(C)c3)oc1C)C(=O)C1CCCN21 (stereo not drawn)
0	.	C=Cn1cccc1-c1cccs1
9	-0.7	O=c1c2c3c(sc2ncn1-c1ccccc1)CCCC3
22	.	CC(=O)Oc1cccc(/C=c2/sc3nc4ccccc4n3c2=O)c1
1	0.6	CN(c1ccccc1)S(=O)(=O)c1cccc(C(=O)NC2CCCC2)c1
.	10	CCOC(=O)c1cccc(-n2sc(=O)n(C3Cc4ccccc4C3)c2=O)c1
-1	.	CC12CCC(=O)N1C(C(=O)OCC(=O)N1CCN(S(=O)(=O)c3ccc4ccccc4c3)CC1)CS2 (stereo not drawn)
-1	.	Cc1ccc2nc(=O)c(NNc3ccccc3)cnc2c1
1	-5.2	CCc1ccc(CNC(=O)c2cc3c(C)nc4ccccc4c3o2)cc1
-10	.	COc1ccc(CC(=O)Nc2ccc(-n3cnnn3)cc2)cc1OC
3	.	O=S(=O)(c1ccc(S(=O)(=O)N2CCCC2c2ccc3c(c2)OCCCO3)cc1)N1CCCC1 (stereo not drawn)
1	4.9	Nc1nnc(-c2ccc(Cn3c(-c4cncs4)nc4ccccc43)cc2)s1
27	0.4	CCN1CCN(C(=O)N2c3ccccc3Sc3ccccc32)CC1
.	0.3	Cn1nc(C(F)(F)F)c(C#N)c1NCc1ccccc1
10	0.6	CCn1c(=O)cc(SCC(=O)NC2CCCC2)c2ccccc21
21	.	CCOc1ncccc1C(=O)OCC(=O)c1ccccc1
.	-2.2	CSc1nn(-c2ccccc2)cc1-c1noc(-c2ccc(Cl)cc2)n1
.	27	O=C(O)CN1C(=O)/C(=C\c2cc(Br)cc(Cl)c2O)SC1=S
.	-0.9	Cc1ccc(Sc2ncccc2NS(=O)(=O)c2ccc(F)cc2)cc1
3	.	CC1(C)CC2=NN(c3ccccc3)P(=S)(NCc3ccco3)C2=C(N2CCCCC2)C1 (stereo not drawn)
16	4.4	Cc1ccc2oc(=O)c3cc(C(=O)NC(C)C)sc3c2c1
17	-0.6	Cc1ccc(NC(=O)CCc2nnc3ccc(N4CCC5(CC4)OCCO5)nn23)cc1
-10	.	Cc1ccc(N2C(=O)Nc3ccccc3C2(O)C(=O)N2CC(C)CC(C)C2)cc1C (stereo not drawn)
10	3.3	Fc1ccc(-c2nn(-c3ccccc3)cc2C=NCc2ccccc2)cc1
4	.	CC(C)(C)OC(=O)N1CCC(C(=O)Nc2nnc(-c3ccc(Cl)cc3)o2)CC1
-14	.	Cc1ccc(-n2c(C)cc(C(=O)CN3CC(C)OC(C)C3)c2C)cc1 (stereo not drawn)
-5	.	CCCSc1nnc2n(-c3cc(C)cc(C)c3)c(=O)c3ccccc3n12
-10	2.5	O=C(NCC1CCCO1)C1CC(=O)N(c2ccccc2)C1 (stereo not drawn)
19	-3.6	CCC(c1nc2ccccc2n1C)C(O)c1ccccc1 (stereo not drawn)
6	.	CN(C1CCCCC1)S(=O)(=O)c1ccc(-c2ccc(=O)[nH]n2)o1
9	-0.1	O=C(Nc1ccccc1)C(F)C(F)(F)F (stereo not drawn)
7	.	CC(=O)N1CCCc2ccc(NC(=O)Oc3ccccc3)cc21
4	-1.3	Cc1cc2c(cc3c(SCC(=O)Nc4ccccc4F)nncn32)o1
-4	.	CC(=O)Nc1nnc(-c2cccs2)o1
-15	.	COc1ccc(-c2c(C(F)(F)F)nn(C)c2NC(=O)NC(C)(C)C)cc1
10	-1.6	Cc1ccc(C(C)N)cc1C (stereo not drawn)

(next part)
S aureus helic	MgrA-DNA mod	Structure
.	-0.6	O=C(NCCNc1ccc(C(F)(F)F)cc1[N+](=O)[O-])c1cccnc1Oc1ccccc1
-13	0.1	O=C(CC12CC3CC(CC(C3)C1)C2)Nc1c(O)c2ccccc2oc1=O
-5	.	COc1ccccc1OC(=O)c1ccc2c(c1)OCCO2
.	2.9	CN=C(Nc1ccc(C)cc1C)SC
9	.	NC(=O)CSc1nc(-c2ccccc2)nc2c1Cc1ccccc1O2
9	0.0	Cc1ccc(Cc2nnc(C(=O)NCCC3=CCCCC3)o2)cc1
5	3.5	COC(=O)c1ccccc1NC(=S)N(Cc1ccco1)Cc1cc2cc(C)ccc2[nH]c1=O
9	0.2	CS(=O)(=O)Nc1cccc(C2=NN(C(=O)CCC(=O)O)C(c3cccs3)C2)c1 (stereo not drawn)
-1	.	CC1(C)OC(=O)C(=Cc2c[nH]c3ccccc23)C(=O)O1
1	3.0	CC1CCCCN1C(=S)NCCc1ccccc1 (stereo not drawn)
12	.	COc1cccc(CNC(=O)CCCN2C(=O)CSc3ncccc32)c1
.	1.6	Cc1cc(C2=Nc3ccccc3SC2)ccc1Cl
11	-0.2	CCCN(CCC)c1ncnc2c1cnn2-c1cccc(C)c1
-2	3.0	O=C(CSc1ccccn1)N/N=C/c1ccccc1
26	.	O=C1C=CC(=O)C(CCC2=CC(=O)C=CC2=O)=C1
4	-2.0	C=CCN1C(=O)CC(C(=O)OCC)=C1C
-7	.	COC(=O)CC1(O)c2ccccc2C(=O)N1Cc1ccccc1 (stereo not drawn)
.	-2.0	O=c1onc(-c2ccccc2C(F)(F)F)n1-c1cccnc1
-1	.	CCCn1c2ccccc2c2cc(C(=O)O)ccc21
9	-2.7	CCc1nn2cc(-c3ccc(Cl)cc3)nc2s1
-20	.	O=C(O)c1ccccc1NCCC1=CCCCC1
5	-1.9	C=CCn1cc(C)c(=O)n(CC=C)c1=O
-29	.	CCCn1c(CCC(=O)Nc2ccc(C)cc2)nc2cccnc21
-7	.	O=C(Cn1cnc2c(nnn2Cc2ccc(Cl)cc2)c1=O)N1CCc2ccccc21
-1	.	N#CC1=C(N)N(c2ncn[nH]2)C2=C(C(=O)CCC2)C1c1ccc(Br)cc1 (stereo not drawn)
13	.	CCC1=NN2C(=N)/C(=C/c3cn(CCOc4cccc(OC)c4)c4ccccc34)C(=O)N=C2S1
6	.	CCOC(=O)c1ccccc1NC(=O)Cc1ccc(OC)c(S(=O)(=O)N2CCOCC2)c1
8	2.2	Cc1cc(N2CCOCC2)nc(-c2ccccc2O)n1
-13	.	CCOC(=O)Nc1ccc2c(COC(=O)C3COc4ccccc4O3)cc(=O)oc2c1 (stereo not drawn)
.	-1.5	CC1CCCC(C)N1NC(=O)c1ccc(Cl)c(S(N)(=O)=O)c1 (stereo not drawn)
9	-2.2	O=C(O)CCC(=O)Nc1ccc(Oc2ccc(Cl)cc2)cc1
6	.	CC(C)(C)OC(=O)Nc1cccc(C(=O)OCCCn2c(=O)[nH]c3ccccc32)c1
10	-1.4	O/N=C/c1nc2ccccc2[nH]1
-16	.	CN(C)c1ccc(NC(=O)c2cc(-c3ccccc3)nc3ccccc23)cc1
13	.	O=C(O)C1(c2cccc(Cl)c2)CCC1
1	.	CC1(C)COCN1C(=O)c1cc2c(=O)n3ccccc3nc2s1

Looked up above.
CC(=O)Nc1nnc(-c2cccs2)o1 @ S aureus helic: -4
CC12CCC(=O)N1C(C(=O)OCC(=O)N1CCN(S(=O)(=O)c3ccc4ccccc4c3)CC1)CS2 (stereo not drawn) @ S aureus helic: -1
CCOC(=O)c1nn(-c2ccc(OC)cc2)c(=O)c(C#N)c1C @ S aureus helic: 4
CCC(c1nc2ccccc2n1C)C(O)c1ccccc1 (stereo not drawn) @ MgrA-DNA mod: -3.6
COc1ccc(CC(=O)Nc2ccc(-n3cnnn3)cc2)cc1OC @ S aureus helic: -10

Remaining list, next part.
S aureus helic	MgrA-DNA mod	Structure
-2	.	Cc1noc(C)c1C(=O)N1CCN(C(=O)c2ccco2)CC1
8	.	CCOC(=O)C1=C(C)NNC(=Nc2cccc(C)c2C)S1
.	0.6	O=C(NC(=O)c1ccccc1Cl)NC1CC1
0	4.3	Cc1ccc(/C=N/NC(=O)C2CC23CCC3)cc1 (stereo not drawn)
-13	.	O=C(NCCc1ccccc1)c1cc(=O)[nH]c2ccccc12
4	-1.3	S=C(NCCc1ccccc1)NN1CCOCC1
-14	-0.1	CCOc1ccccc1Nc1nc2ccccc2s1
-18	.	OC(CNCc1ccc(F)cc1)c1ccccc1 (stereo not drawn)
-3	.	COc1ccccc1C(=O)N(C)S(=O)(=O)c1ccc(C)cc1
8	.	Cn1ccc(=O)[nH]c1=O
23	.	CCN1C(=O)N/C(=C/c2cn(CC(=O)Nc3ccc(F)cc3)c3ccccc23)C1=O
-12	0.8	CCC(C)C(=O)Nc1cccc(C(F)(F)F)c1 (stereo not drawn)
.	-0.8	O=S(=O)(c1ccc(Cl)cc1)n1nc(C(F)(F)F)c2cnccc21
8	-4.4	COc1ccccc1NC(=O)c1ccc2c(c1)C(=O)N(Cc1ccncc1)C2=O
-2	0.2	CCS(=O)(=O)c1ccc(OC)c(NC(=O)c2cc3ccccc3o2)c1
